# From PubChem BioAssay
# 2A Renilla = Primary qHTS Assay for Foot and Mouth Disease Virus Antivirals against NCGC Sytravon and CBC Compound Libraries: Renilla Luciferase Signal | HEK cells with a luciferase reporter of 2A StopGo recoding | Potency, µM (doses to about 57.5 µM), inactives show top-dose signal change, negative = less light | 120,000 compounds, 0.32% hits | AID 1745857, 2022; active means well fitted falling curve with a large enough effect; inconclusive means small, poorly fitted or top-dose-only effect; inactive means no such curve, though single readings can be large or run the other way; also: nearly all actives have a fitted effect of over 55% in size; overnight with compound
# 2A firefly = Primary qHTS Assay for Foot and Mouth Disease Virus Antivirals against NCGC Sytravon and CBC Compound Libraries: Firefly Luciferase Signal; 120,000 compounds, 0.23% hits; AID 1745856, 2022; HEK cells with a luciferase reporter of 2A StopGo recoding; Potency, µM (highest dose often 57.5 µM), inactives show top-dose signal change, negative = less light; active = well fitted falling curve with a large enough effect; inconclusive = small, poorly fitted or top-dose-only effect; inactive = no such curve, though single readings can be large or run the other way; also: nearly all actives have a fitted effect of over 60% in size; overnight with compound
# * = called active by the depositor; ? = inconclusive; & = joins results of further samples; [ ] = dose if it differs, or a comment. % is scaled to controls: 0 for no effect and ±100 for the full control effect; potency is read from the fitted curve at half-maximal effect.
SMILES,2A Renilla,2A firefly
Nc1ccc(C(=O)O)c([N+](=O)[O-])c1,-5%,3%
CCOc1cc(/C=C2/NC(=O)NC2=O)cc(I)c1OC,24%,23%
O=C1CCCc2c1[nH]c1ccc(C34CC5CC(CC(C5)C3)C4)cc21,11%,1%
CC(=O)Nc1nonc1-c1nnc(SCC(=O)Nc2cc(C)cc(C)c2)n1C,-3%,20%
Cc1cccc(-c2nc(SCCCOc3ccc(Cl)c(C)c3)n3[nH]c(=O)cc3n2)c1,-18%,-10%
Cc1ccc(OCCSc2nc3ccccc3n2CC(=O)N2CCOCC2)cc1C,2%,-2%
O=[N+]([O-])c1ccc(/C=N/Nc2ccc(Cl)nn2)cc1,1%,-3%
O=C(NCCN1CCCCCC1)C1CCCC1,14%,5%
O=C(Nc1ccccc1)C1CCN(C(=O)c2ccc3ccccc3n2)CC1,14%,6%
Oc1ccc(Cl)cc1C1=Nc2ccccc2N=C(c2cccc(Br)c2)C1,-9%,53%[activator]
CN1CCN(C(=O)CN2CCN(C(C(=O)O)c3cn(C)c4cc(C(=O)O)ccc34)CC2)CC1 (stereo not given),-3%,7%
Cn1ccnc1CN(C1CC1)S(=O)(=O)c1cc(F)ccc1F,-5%,4%
COc1ccc(CNc2oc(/C=C/c3cccc(OC)c3)nc2C#N)cc1,13%,90%[activator]
O=Cc1ccccc1-n1ccnc1,2%,19%
CCCNC(=O)CN(C)C(=O)c1cc2ccccc2n1CC,6%,-1%
CC(C)c1ccc(NC(=O)CN2C(=O)CN=C(c3ccccc3)c3ccccc32)cc1,-14%,-3%
CCc1nnc(SCC(=O)Nc2ccccc2Cl)nc1CC,-8%&10%,6%&-23%
CC1=C2[C@H]3OC(=O)[C@@H](C)[C@@H]3CC[C@@]2(C)C=CC1=O,-7%,-9%
O=C(NCCc1c[nH]c2ccccc12)c1ccc2ccccc2n1,10%,184%[activator]
Cc1ccc(NC(=O)c2cn(C)c3ccccc23)cc1,-11%,159%[activator]

# Entries of single compounds from above. Order of screens: 2A Renilla	2A firefly
# Shown for CCc1nnc(SCC(=O)Nc2ccccc2Cl)nc1CC : -8%&10%	6%&-23%
# Shown for Cc1cccc(-c2nc(SCCCOc3ccc(Cl)c(C)c3)n3[nH]c(=O)cc3n2)c1 : -18%	-10%
# Shown for Oc1ccc(Cl)cc1C1=Nc2ccccc2N=C(c2cccc(Br)c2)C1 : -9%	53%[activator]
# Shown for Cc1ccc(OCCSc2nc3ccccc3n2CC(=O)N2CCOCC2)cc1C : 2%	-2%
# Shown for Cc1ccc(NC(=O)c2cn(C)c3ccccc23)cc1 : -11%	159%[activator]

# The main list resumes, repeating the 6 entries before the break.
SMILES,2A Renilla,2A firefly
CCCNC(=O)CN(C)C(=O)c1cc2ccccc2n1CC,6%,-1%
CC(C)c1ccc(NC(=O)CN2C(=O)CN=C(c3ccccc3)c3ccccc32)cc1,-14%,-3%
CCc1nnc(SCC(=O)Nc2ccccc2Cl)nc1CC,-8%&10%,6%&-23%
CC1=C2[C@H]3OC(=O)[C@@H](C)[C@@H]3CC[C@@]2(C)C=CC1=O,-7%,-9%
O=C(NCCc1c[nH]c2ccccc12)c1ccc2ccccc2n1,10%,184%[activator]
Cc1ccc(NC(=O)c2cn(C)c3ccccc23)cc1,-11%,159%[activator]
CCN(CC)c1ccc(NC(=O)CCS(=O)(=O)c2cccc3nsnc23)c(C)c1,-6%,-13%
COc1c(C)cc(N)cc1C,1%,-2%
N#Cc1ccnc(N2CCN(C(=O)Nc3ccc(F)cc3)CC2)c1,-11%,-2%
CCOC(=O)c1cc(S(=O)(=O)Nc2ccc(OC(F)(F)F)cc2)[nH]n1,152%[activator],0%
Cc1cc(Cl)cc(C)c1OCC(=O)Nc1ccccc1N1CCCC1=O,-14%,-15%
O=C(OCc1cccc2ccccc12)c1cnccn1,-7%,1%
COc1ccc(C(=O)Nc2ccc3nc(SCC(=O)N4CCCC4)sc3c2)cc1,13%,-14%
O=C(NC12CC3CC(CC(C3)C1)C2)c1ccc(-c2nc3ccccc3s2)s1,20%,20µM*
CS(=O)(=O)N1CCCC1C(=O)NC1CCCCC1 (stereo not given),2%,129%[activator]
CCOC(=O)c1ccc(N2CCN(CC)CC2)c(NC(=O)COc2ccc(OC)cc2)c1,-3%,3%
CCOC(=O)N1CCc2c(sc3c2c(=O)n(CCc2ccccc2)c(=O)n3Cc2cc(C)ccc2C)C1,-9%,-10%
COc1ccc(-c2coc3cc(OCC(=O)OC(C)C)ccc3c2=O)cc1OC,-2%,-15%
COc1ccc(C)cc1CC(=O)NCc1nnc2ccccn12,10%,20%
CC1CCCCC1NC(=O)CCCNC(=O)C(C)(C)C (stereo not given),0%,3%
CCn1cc(-c2cc(C(=O)OC)c3ccccc3n2)c(C)n1,0%,19%
Cc1ccc(-n2c(SCC(=O)NC(C)c3cc4ccccc4o3)nnc2N2CCOCC2)cc1 (stereo not given),4%,-13%
Cc1[nH]c2ccccc2c1C(c1ccc(Br)o1)c1c(C)[nH]c2ccccc12,-34%,17%
CCOC(=O)c1cnc(Nc2cccc(C)c2C)c2ccccc12,4%,11%
COc1cccc(NC(=O)CSc2nc(Cl)nc3nc[nH]c23)c1,-10%,8%
CCOC(=O)c1c(C)[nH]c(C)c1S(=O)(=O)N1CCC(C(=O)Nc2cc(C)ccn2)CC1,19%,6%

# Seven records picked at random from those above, as already listed:
SMILES,2A Renilla,2A firefly
Cc1cc(Cl)cc(C)c1OCC(=O)Nc1ccccc1N1CCCC1=O,-14%,-15%
CCOC(=O)c1c(C)[nH]c(C)c1S(=O)(=O)N1CCC(C(=O)Nc2cc(C)ccn2)CC1,19%,6%
COc1cccc(NC(=O)CSc2nc(Cl)nc3nc[nH]c23)c1,-10%,8%
CCn1cc(-c2cc(C(=O)OC)c3ccccc3n2)c(C)n1,0%,19%
Cc1ccc(-n2c(SCC(=O)NC(C)c3cc4ccccc4o3)nnc2N2CCOCC2)cc1 (stereo not given),4%,-13%
O=C(NC12CC3CC(CC(C3)C1)C2)c1ccc(-c2nc3ccccc3s2)s1,20%,20µM*
COc1c(C)cc(N)cc1C,1%,-2%

# (continued)
SMILES,2A Renilla,2A firefly
O=C(Cn1nc(Cc2cccnc2)c2ccccc2c1=O)N1CCN(c2ccc(F)cc2)CC1,-12%,-12%
Cc1ccc(S(=O)(=O)OCCCCOS(=O)(=O)c2ccc(C)cc2)cc1,-3%,5%
Cc1ccc(S(=O)(=O)Nc2cc3c(cc2N2CCOCC2)n(C)c(=O)n3C)c(C)c1,-6%,-14%
N#Cc1ccc(Oc2cccc(F)c2)cc1,2%,9%
Cc1c(Cl)cccc1NC(=O)C(C)N(c1ccccc1)S(C)(=O)=O (stereo not given),128%[activator],-8%
Cc1cccc(C)c1NC(=O)C(=O)NCC(c1cccnc1)N1CCc2ccccc21 (stereo not given),-11%,-14%
Cc1nc2c(cc(OCc3ccc(F)cc3)c3ccsc32)s1,-14%[1.06 µM],33%[activator]
CCOC(=O)c1c(C)oc2ncnc(Nc3ccc(F)cc3Cl)c12,-15%,2%
Cc1ccccc1-c1nc(CS(=O)CC(=O)N2CCN(c3cc(Cl)ccc3C)CC2)c(C)o1 (stereo not given),-14%,-7%
CCCCCCn1nc(C(=O)OCC(=O)Nc2cc(C)on2)c2ccccc2c1=O,-8%,7%
COc1ccc(NC(=O)CCc2c(C)nc3cc(-c4cccc(F)c4)nn3c2C)cc1Cl,-6%,28µM*
C/C(=N\NC(=O)c1cccs1)c1cccc(C)c1,72%[activator],441%[activator]
O=C(NCCc1ccccc1)Nc1ccc(CN2CCOC2=O)cc1,-17%,99%[activator]
CCOC(=O)c1cccc(NC(=O)c2ccc3c(Cl)c4c(nc3c2)CCC4)c1,-1%,247%[activator]
Cn1c(CNc2cccc(Br)c2)c(C#N)c2ccccc21,33%[activator],5%
Cc1nc2nc(SCC(=O)c3ccc4c(c3)OCO4)[nH]c2cc1Br,4%,197%[activator]
COC(=O)c1cc(-c2c(C)oc3cc(OC(C)=O)ccc3c2=O)c(C)o1,-6%,-5%
O=c1c2ccccc2cnn1Cc1coc(-c2ccccc2)n1,79%[activator],221%[activator]
CCc1nn2c(=O)cc(COC(=O)C(CC)c3ccccc3)nc2s1 (stereo not given),-7%,12%
Fc1ccccc1-c1nnc2sc(-c3ccc4ccccc4n3)nn12,-6%,6%
O=C(c1ccc(F)cc1F)N1CCC(c2noc(-c3ccc(S(=O)(=O)N4CCCC4)cc3)n2)CC1,-1%,-6%
Nc1c(C(=O)Nc2c(Cl)cccc2Cl)sc2nc(-c3ccncc3)ccc12,-4%,47%[activator]
CCCOC(=O)c1ccc(Oc2coc3cc(OC)ccc3c2=O)cc1,-4%,118%[activator]
Cc1cccc(-c2nc(C#N)c(N3CCOCC3)o2)c1,18%,167%[activator]
Cc1ccc(-c2noc(CNC(=O)COc3cc(C)c(Br)c(C)c3)n2)cc1,-15%,-17%
Cc1ccc(COc2ccc(CNC3CC3)cc2)cc1,-8%,106%[activator]
CCc1ccc(C2CC(=O)c3c([nH]c(C(=O)OCC4CCCCC4)c3C)C2)cc1 (stereo not given),12%,9%
O=C(CSc1n[nH]c(-c2ccc(F)cc2)n1)N1CCN(c2ccc(F)cc2)CC1,-22%,?
O=C(Nc1cc(C(F)(F)F)ccc1N1CCOCC1)c1cncc(Br)c1,-1%,0%
CS(=O)(=O)N1CCC(NC(=O)c2cnc3ccccc3n2)CC1,-8%,11%
Cc1ccc(NS(=O)(=O)c2c(C)nc3sc(C)c(C)n3c2=O)cc1F,128%[activator],-19%
COc1cccc(-n2ccnc2SCC(=O)Nc2cccc(C)c2C)c1,-34%,?
COc1ccc(C(=O)Nc2nnc(C)s2)cc1,0%,98%[activator]
CCc1ccc2c(c1)NC(c1cccs1)=NC(c1ccc(F)cc1)=N2,37%[activator],227%[activator]
Cc1c(C)n2c3c(=O)[nH]c(=O)n(C)c3nc2n1CCCN(C)C,-11%,-2%
COc1ccc(Cl)cc1NC(=O)c1cn(C2CCCCC2)c(=O)c2c1c1ccccc1n2C,-16%,-7%
Cc1cccn2c(=O)cc(COc3ccc(NC(=O)c4cccc(F)c4)cc3)nc12,-16%,-19%
Cn1c(=O)n(Cc2ccccc2)c(=O)c2c1nc(N1CCCC1)n2Cc1ccccc1,17%,9%
Cc1ccc(NC(=O)Cn2c(=O)ccc3cc(S(=O)(=O)N4CCC(C)CC4)ccc32)c(C)c1,25%,4%
Clc1cccc(-n2cccc2)c1,-1%,2%
COc1ccc(N(C)C(=O)c2ccc3ccccc3n2)cc1OC,16%,0%
O/N=c1/oc2cc3occ(-c4ccccc4)c3cc2c2c1CCC2,-7%,24%
CCCc1c(C(=O)NCCO)nnn1-c1ccc(C)cc1,-12%,3%
Cc1ccc(C)c(-n2nnc(C(=O)NC3CCCCC3)c2N)c1,?,-13%
O=C(c1ccc2c(c1)N(Cc1ccc(F)cc1)CCS2)N1CCN(c2ccccc2)CC1,80%[activator],2%
CCOc1ccc(N(Cc2cc3ccc(C)cc3[nH]c2=O)S(C)(=O)=O)cc1,-2%,-1%
CC(=O)Nc1ccccc1-c1nc2ccccc2n(CC(=O)c2ccc(C)c(C)c2)c1=O,-16%,-1%
CC(Sc1nnc(N2CCCC2)n1-c1ccccc1Cl)c1nc2ccccc2c(=O)[nH]1 (stereo not given),35%[activator],32%[activator]
CCOC(=O)c1c(C)[nH]c(C)c1S(=O)(=O)NCC(=O)N(C)c1ccc(C)c(C)c1,61%[activator],-8%
Cc1ccc(CN(C(=O)COc2cccc([N+](=O)[O-])c2)c2ccccn2)cc1,47%[activator],2%
CCc1nc2ccccc2c(C(=O)OCC(=O)NC(N)=O)c1C,8%,19%
NC(=O)C1CCCN(C(=O)CCc2ncc(-c3ccc(F)cc3)o2)C1 (stereo not given),-6%,74%[activator]
NC(=S)N/N=C/c1cccnc1,-9%,-16%[11.5 µM]
N#Cc1ccc(NCCNC(=O)C2CC=CCC2)nc1 (stereo not given),?,6%
O=C(CCn1cnnn1)Nc1ccc(F)cc1,-4%,0%
Nc1nc(SCC(=O)NCc2ccc(Cl)cc2Cl)n[nH]1,-6%,4%
CCCCC(=O)Nc1ccc2oc(-c3ccc(F)cc3Cl)nc2c1,-5%,123%[activator]
COc1ccc(-n2c(SCCC(C)C)nc3sc4c(c3c2=O)CC(C(C)C)OC4)cc1 (stereo not given),-8%,-7%
COc1ccc(-c2nn3c(=O)cc(CNC(=O)c4cc(OC)c(OC)c(OC)c4)nc3s2)cc1,10%,164%[activator]
Cc1ccc(C)c(N2CCN(C(=O)CN3C(=O)COc4ccc(S(=O)(=O)N5CCCC5)cc43)CC2)c1,-5%,3%

# (next part)
SMILES,2A Renilla,2A firefly
Cc1ccccc1-c1nc(C#N)c(NCCc2ccccc2)o1,97%[activator],9%
Cc1ccc(C)c(CS(=O)CCC(=O)Nc2ccccc2)c1 (stereo not given),17%,18%
N#Cc1ccc(Oc2ccc(C=O)cc2)cc1C#N,8%,0%
Cc1ccc2nc(-c3cccc(NC(=O)CSc4ccc(Cl)cc4)c3)oc2c1,-9%,66%[activator]
Cc1ccc(C)c(N2CCN(C(=O)c3cc4c(=O)n(Cc5cccs5)ccc4nc3C)CC2)c1,-14%,-17%
Cc1cc(C(=O)OCC(=O)NCC(C)C)c2ccccc2n1,-3%,0%
COc1ccccc1Cc1nnc(NC(=O)c2cccc(NC(=O)c3ccccc3)c2)s1,5%,4%
CCN1C(SCC(=O)Nc2ccccc2)=NS(=O)(=O)c2ccccc21,6%,29%
CCOCCn1c(SCC)nc2c1c(=O)[nH]c(=O)n2C,7%,8%
Cc1cccc(C(=O)Nc2cccc3cccnc23)c1C,9%,62%[activator]

# A portion of the library; count on the stated rates, not on these rows.
